Screens from PubChem BioAssay.
eIF4H FP inh – human eIF4H binding inhibitors, primary screen, translation initiation inhibitor project, biochemical, uHTS, fluorescence polarization; eIF4H fluorescence polarization binding assay; inhibition, % at 35 µM; Eukaryotic translation initiation factor 4H (Homo sapiens), Q15056; hit rate 0.94% among 290,000;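 active means 50% or more with normal probe brightness, or confirmed in later tests; inconclusive means above 50% with abnormal brightness, or retests that disagree; inactive means below 50% or failed in later tests; about a fifth of its hits are not listed in these tables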;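 further: calls also rest on retests at 20 µM and on dose response follow-up; 0% = protein and probe with vehicle and 100% = probe without protein; strong numbers were not always called active; many hits fall short of the cut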
CSC inhib – cancer stem cell viability inhibitors, primary screen, luminescence | cancer stem cell-like cells viability | inhibition, % at 7.5 µM | hit rate 1.1% among 300,000 | AID 2717, 2010;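 active means mean at 75% or more and at least half the replicates too; inconclusive means mean and replicates disagree; tested in HMLE shEcad cells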;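 further: 0% = median of negative and 100% = median of positive control wells; the first replicate is given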
PABP FP inh – PABP poly(A) RNA binding inhibitors, primary screen, biochemical, fluorescence polarization, uHTS; Polyadenylate-binding protein 1 (Homo sapiens), P11940; inhibition, % at 35 µM; hit rate 1% among 290,000;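 active means 50% or more with normal probe brightness, or confirmed in later tests; inconclusive means above 50% with abnormal brightness, or retests that disagree; inactive means below 50% or failed in later tests; about a fifth of its hits are not listed in these tables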;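 further: calls also rest on retests at 20 µM and on dose response follow-up; controls were probe without protein and protein plus probe with vehicle; some compounds called inactive have numbers as strong as hits; many hits fall short of the cut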
Target sequence (P11940 whole entry, looked up): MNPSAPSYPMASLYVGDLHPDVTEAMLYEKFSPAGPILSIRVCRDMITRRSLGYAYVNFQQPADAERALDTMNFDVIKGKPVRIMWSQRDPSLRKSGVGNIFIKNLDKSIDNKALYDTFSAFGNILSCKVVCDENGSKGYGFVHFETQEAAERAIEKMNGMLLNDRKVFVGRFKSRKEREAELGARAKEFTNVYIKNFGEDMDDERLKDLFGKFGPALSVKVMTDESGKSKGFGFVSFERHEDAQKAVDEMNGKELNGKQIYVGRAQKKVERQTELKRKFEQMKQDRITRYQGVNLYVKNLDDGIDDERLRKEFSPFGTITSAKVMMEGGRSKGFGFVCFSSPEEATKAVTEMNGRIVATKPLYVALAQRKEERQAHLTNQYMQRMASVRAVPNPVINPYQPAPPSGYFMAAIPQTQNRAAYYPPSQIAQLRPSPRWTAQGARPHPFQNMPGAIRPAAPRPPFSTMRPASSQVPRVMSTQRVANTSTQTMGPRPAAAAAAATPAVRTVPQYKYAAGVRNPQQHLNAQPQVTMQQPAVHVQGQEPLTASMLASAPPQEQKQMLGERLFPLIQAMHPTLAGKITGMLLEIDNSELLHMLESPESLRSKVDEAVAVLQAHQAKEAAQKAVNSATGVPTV
Rce1 inh – yeast Rce1p protease inhibitors, primary screen, biochemical, fluorescence, cell-free homogeneous; CAAX prenyl protease 2 (Saccharomyces cerevisiae (strain ATCC 204508 / S288c)), Q03530; yeast membranes, quenched prenylated peptide cleavage fluorescence; calls only; hit rate 0.27% among 290,000;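 active means fall in fluorescence gain of 50% or more versus controls, with final raw signal at or below 3038400; inconclusive means same 50% fall but final raw signal above 3038400; inactive means fall in fluorescence gain under 50%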;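 further: plate controls were neutral control wells for no effect and wells lacking membranes for full effect; tested at 10 µM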
Target sequence (Q03530 whole entry, looked up): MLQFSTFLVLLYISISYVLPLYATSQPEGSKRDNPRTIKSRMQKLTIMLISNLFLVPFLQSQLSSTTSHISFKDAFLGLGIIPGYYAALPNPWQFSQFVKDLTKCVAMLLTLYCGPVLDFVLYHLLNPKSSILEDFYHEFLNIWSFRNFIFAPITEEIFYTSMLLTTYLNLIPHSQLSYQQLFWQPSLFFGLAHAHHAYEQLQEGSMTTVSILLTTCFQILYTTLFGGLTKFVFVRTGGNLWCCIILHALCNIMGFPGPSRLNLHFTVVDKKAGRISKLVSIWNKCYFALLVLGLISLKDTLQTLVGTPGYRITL
Yeast UUG start – modulators of yeast start codon fidelity, primary screen, whole organism, S. cerevisiae, single point, plate reader; activity score, % at 18.7 µM; AID 602363, 2012; hit rate 0.13% among 350,000; S. cerevisiae UUG-firefly luciferase reporter, luminescence/redox ratio;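 active means replicate mean at a twofold rise or more, about +100% in these data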;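 further: firefly luciferase made from a UUG start codon reports start codon fidelity; reporter light over untreated wells divided by growth signal over untreated wells; some hits fall short of that in this replicate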
MT1-MMP act inh – blockers of MT1-MMP proenzyme processing, primary screen, HT1080 RFP-PRO-GFP cells, GFP/RFP fluorescence; Matrix metalloproteinase-14 (Homo sapiens), P50281; GFP/RFP ratio fluorescence, overnight; percent of plate control window, DMSO zero; GFP/RFP ratio change, % at 20 µM; hit rate 0.061% among 360,000;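 active means GFP/RFP ratio change of at least 30% with cell ATP level not reduced by more than half and red fluorescence within 50% of control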; further: strong numbers were not always called active
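Assay system: HT1080 cells carrying an RFP-PRO-GFP reporter | Dosing: Single dose of 20 µM compound, 1% DMSO final | Incubation: Cells overnight before dosing, compound overnight, 37 °C, 5% CO2 | Evaluation: GFP/RFP fluorescence ratio | Control set: DMSO and RFP-L50D-GFP cell wells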
Env fusion inh – inhibitors of HIV-1 Env-driven cell-cell fusion, primary screen, HeLa-JRFL effector, CEM21 target cells, luciferase. inhibition, % at 12.3 µM. hit rate 1.1% among 360,000. AID 651610, 2012;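 active means mean replicate inhibition score of at least 50 and every replicate individually at or above 50; inconclusive means only one of the two criteria met; inactive means mean below 50 and not all replicates reaching 50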;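 further: 0% = plate neutral controls and 100% = maraviroc near 300 nM; one replicate is shown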
eIF4H FP inh retest – recorded beside eIF4H FP inh, whose call it bears; inhibition, %; compound at 20 µM; confirmation average;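 mean of two retest wells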
PABP FP inh retest – second read-out of PABP FP inh, no call of its own (marks repeat the call); inhibition, %; compound at 20 µM; confirmation repeats;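 mean of two retest wells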
MT1-MMP act inh RFP – further read-out of MT1-MMP act inh, marked with its call; RFP signal change, %; measured here: RFP expression control read;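 0 = vehicle wells; hits needed this value within 50% of zero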
Active calls of the source: *; i = inactive; ? = inconclusive; nt = no result given; + = active, no number. Compounds were not picked by outcome; about 2.9% have a hit in one of these screens.

SMILES | eIF4H FP inh | CSC inhib | PABP FP inh | Rce1 inh | Yeast UUG start | MT1-MMP act inh | MT1-MMP act inh RFP | Env fusion inh | others
O=C(CCc1nc2ccccc2s1)NC1CCOC1=O (stereo not given) | 10 | 11 | 17 | i | -1 | 1 | 4 | -2
CC(=O)NS(=O)(=O)c1ccc(NC(=O)c2ccc3c(c2)C(=O)N(CCC(C)C)C3=O)cc1 | -9 | -3 | -9 | i | -12 | 2 | 2 | 2
CCN1CCN(C(=O)NC2CCCCC2)CC1 | 12 | -12 | 4 | i | -16 | -1 | 1 | 2
COC(=O)[C@H](CCSC)NC(=O)Cn1ccc(N)nc1=O | nt | -5 | nt | nt | -3 | 4 | 6 | 20
CN(C(=O)c1cccc(NC(=O)Cc2ccc(NC(=O)C3CCN(C(=O)C4CC4)CC3)cc2)c1)C1CCC1 | nt | nt | nt | nt | 10 | 0 | 5 | 1
CC(CC(c1ccccc1)N1CCc2ccccc2C1)=NO (stereo not given) | nt | nt | nt | nt | -44 | 2 | 0 | 14
COc1ccc(-c2nc(C)ncc2N=Nc2ccccc2)cc1 | -4 | 6 | 1 | i | -15 | 1 | 1 | nt
Cc1c(Br)cc(C(=O)N2CCCC2)c(C)c1C | 2 | -3 | 13 | i | -14 | -3 | -3 | -99
O=C(C1CCCO1)N1CCN(C(=O)C23CC4CC(CC(C4)C2)C3)CC1 (stereo not given) | nt | nt | nt | nt | -11 | 2 | 7 | 7
Cc1cc(=O)c(C(=O)c2ccccc2)c(C)o1 | nt | -9 | nt | i | nt | 2 | 2 | -41
Cc1ccccc1-n1c(SCc2cccc(F)c2)nc2[nH]ncc2c1=O | -3 | 22 | -6 | i | -6 | -5 | -3 | -15
CNC(=S)NNC(=O)COc1ccc(C)c(C)c1 | -5 | -10 | -3 | i | nt | 1 | 2 | 10
Cc1ccc(C)c(/C=N/Nc2nc3ccccc3c(=O)n2O)c1 | -7 | -6 | 10 | i | -20 | 6 | 1 | -28
CCN(CCn1cccn1)C(=O)c1cccc(OC2CCN(S(C)(=O)=O)CC2)c1 | 0 | -8 | -2 | i | -14 | 0 | 0 | 15
CCN(CC)C(=O)Cn1c(=O)n(-c2ccccc2)c(=O)c2sccc21 | -5 | -7 | 50 | i | nt | -2 | 1 | -4 | eIF4H FP inh retest=-2;PABP FP inh retest=7
O=S(=O)(NC1CC1)c1ccc(Cl)cc1 | -2 | -10 | -4 | i | -18 | 0 | -2 | 2
NC(=O)Cn1nc([N+](=O)[O-])nc1Oc1ccccc1F | 52 | -19 | 4 | i | -19 | 1 | 4 | 12 | eIF4H FP inh retest=23;PABP FP inh retest=28
Cc1csc(NC(=O)/C=C/c2ccc(C)o2)n1 | 20 | -5 | 0 | i | nt | -2 | 5 | -37
Cc1ccc(C(=O)Nc2ccc(N3CCN(C(=O)c4ccco4)CC3)cc2)cc1 | 1 | 13 | 4 | i | -7 | -1 | -5 | 6
CCOC(=O)Cn1cnc2scc(-c3ccccc3)c2c1=O | -15 | 9 | -6 | i | -6 | 0 | 2 | 12
CCn1ncc(S(=O)(=O)N2CCN(c3cccc(OC)c3)CC2)c1C | -3 | -7 | -15 | i | -13 | -1 | -3 | -9
O=C(Cc1c(F)cccc1Cl)NNC(=O)Nc1ccc2c(c1)OCO2 | 5 | -7 | 6 | i | -14 | 0 | 4 | -14
COCCSc1nnc(NC(=O)C(C)(C)C)s1 | 4 | nt | -4 | i | -21 | -9 | -2 | nt
COc1ccc(NC(=O)c2cn3c(nc4ccccc43)c(C#N)c2C)cc1 | 5 | nt | 9 | + | -12 | -4 | -2 | 7
C/C(=C(\C#N)C(=O)NCCCN1CCOCC1)N(C)C | 13 | -6 | -2 | i | -20 | 5 | 4 | nt
CCN1CCN(c2nc(Nc3cccc(C)c3)nc(N)c2[N+](=O)[O-])CC1 | 4 | -11 | 10 | i | -10 | 5 | -3 | -1
Cc1ccc(-c2nnn(CC(=O)N(CC(=O)NC3CCCC3)c3cnc4ccccc4c3)n2)o1 | -11 | 6 | -11 | i | 1 | 0 | 0 | ?
N#CCCN(C(=O)COC(=O)CCC(=O)c1ccc(F)cc1)c1ccccc1 | nt | 2 | nt | nt | -1 | -1 | 4 | nt
CC(C)OC(=O)c1ccc2ccc(-c3ccccc3)nc2c1 | nt | nt | nt | nt | -23 | 0 | -5 | -255
COc1ccc(CCN=CC2=C(O)CC(C)(C)CC2=O)cc1 | -7 | -13 | -3 | i | -13 | 0 | 6 | -5
CCOc1ccc(N=C2SC(C(=O)Nc3ccccc3C#N)C(N)=C2C(=O)Nc2ccc(Cl)cc2)cc1 (stereo not given) | -1 | 16 | 7 | i | nt | 3 | 1 | -14
O=C(Oc1ccc(-c2nnco2)cc1)N(c1ccccc1)c1ccccc1 | -13 | 26 | 5 | i | -9 | 2 | -5 | nt
CNCc1c(OCc2ccccc2)ccc2ccccc12 | 4 | -6 | -2 | i | -16 | 5 | 6 | -10
CN(C(=O)c1cc2c(=O)n3ccccc3nc2s1)C1CCCCC1 | -4 | 0 | 5 | i | -24 | 0 | -4 | -35
Cc1cc(NC(=O)CSc2nc3ccsc3c(=O)n2CCCC(=O)NCCc2ccccc2)no1 | 2 | -7 | -2 | i | nt | 1 | -1 | 19
CC1CN(CC(=O)N2CCc3[nH]c4ccccc4c3C2)CC(C)O1 (stereo not given) | 15 | -17 | 30 | i | -7 | -5 | -1 | nt
Cc1ccc(C(=O)NNC(=O)c2ccc(S(=O)(=O)N(C)c3ccccc3)cc2)cc1 | nt | nt | nt | nt | -14 | 0 | 1 | -1
CC(OC(=O)c1c(F)cccc1F)C(=O)NCCC1=CCCCC1 (stereo not given) | nt | -18 | nt | nt | -2 | 1 | 0 | 3
Cc1cccc(NCCNc2cccc(C)c2)c1 | -7 | 44 | -4 | i | -18 | -11 | -18 | -13
Cc1nc(-c2ccccc2)cc(=O)[nH]1 | 0 | -16 | -12 | i | -20 | 3 | 15 | -55
COCCCN(C(=S)Nc1cc(Cl)cc(Cl)c1)C(C)c1ccccn1 (stereo not given) | 0 | 34 | -2 | i | -26 | 8 | 0 | 8
CC(=O)N1c2ccccc2Oc2cc3ccccc3cc21 | -1 | 8 | -9 | i | -10 | 11 | -7 | -5
Cc1ccc(-c2cc(NC(=O)CCl)n(-c3ccccc3)n2)cc1 | -14 | 96* | 16 | i | 10 | -8 | -7 | -31
O=C1C2C3C=CC(C3)C2C(=O)N1CCC(=O)N1CCc2ccccc21 (stereo not given) | 4 | -1 | 3 | i | -15 | -3 | 1 | -35
CCOCCCN1C(=O)CN(C2CCC(C)CC2)C(=O)C1c1ccc(C)cc1 (stereo not given) | -3 | -9 | -12 | i | nt | -1 | 2 | 10
CNC(=S)NNC(=O)c1cccc(C(F)(F)F)c1 | 6 | -7 | 27 | i | -14 | 4 | -1 | nt
CCOC(=O)c1sc2nc(C)nc(SCC(=O)N(CC)C3CCS(=O)(=O)C3)c2c1C (stereo not given) | -10 | 4 | -7 | i | nt | -4 | -21 | 16
CC(=O)c1oc2ccccc2c1NC(=O)CCCN1C(=O)c2ccccc2C1=O | -3 | 12 | -6 | i | -4 | 0 | 2 | -40
CC(=O)c1cccc(S(=O)(=O)Nc2cccnc2)c1 | -10 | -8 | 7 | i | -3 | 5 | 3 | 2
CCOC(=O)Cc1csc(NS(=O)(=O)Cc2ccccc2)n1 | 8 | -10 | -3 | i | -30 | 0 | 4 | -11
COCCCn1c(C)cc(C(=O)COC(=O)C23CC4CC(CC(O)(C4)C2)C3)c1C | nt | nt | nt | nt | -8 | -3 | -2 | -47
CC(C)c1cc(NC(=O)C(C)(C)C)cc(C(C)C)c1O | -3 | 8 | -4 | i | 1 | 0 | 5 | 4
CN1C(=O)CCC1(O)c1ccccc1 (stereo not given) | -11 | -11 | -6 | i | -16 | -7 | 4 | -15
Cc1cccc(C(=O)OCC(=O)NCCCc2ccccc2)c1O | 2 | -1 | 8 | i | -5 | -2 | 1 | 5
COc1ccc(OC)c(-n2nnnc2SCC(=O)Nc2ccc3c(c2)OCCO3)c1 | -6 | -3 | -3 | i | 5 | 3 | -5 | nt
COc1ccc(CCNC(=O)COC(=O)/C=C/c2ccc(OCC#N)c(OC)c2)cc1OC | 5 | 7 | -11 | i | nt | -8 | 3 | nt
COc1ccc(/C=N/N2C(=O)CSC2=S)cc1 | 2 | 5 | 8 | i | -8 | 1 | 2 | nt
CSc1ncccc1C(=O)OCC(=O)c1ccccc1Br | -3 | -1 | 4 | i | nt | 2 | 1 | -3
Cc1ccc(C2CC(=O)C=C(NCC(C)C)C2)cc1 (stereo not given) | -14 | -28 | -3 | i | -5 | -2 | -3 | 28
CCC(Oc1ccc(C)cc1)C(=O)Nc1ccc2c(c1)n(C)c(=O)n2C (stereo not given) | 4 | -17 | -8 | i | -4 | 3 | 3 | 0

(cont.)
SMILES | eIF4H FP inh | CSC inhib | PABP FP inh | Rce1 inh | Yeast UUG start | MT1-MMP act inh | MT1-MMP act inh RFP | Env fusion inh | others
CC1Cc2ccccc2N1C(=O)CSc1nc2c(c(=O)n(C)c(=O)n2C)n1Cc1ccc(F)cc1 (stereo not given) | nt | 9 | nt | i | nt | -1 | 8 | nt
CC(=O)CC(=O)Nc1ccc(Nc2ccccc2)cc1 | -1 | nt | -21 | i | -8 | 3 | -4 | 14
CN1CCN(c2cc(CNC[C@H]3O[C@@H](n4cnc5c(=O)[nH]c(N)nc54)[C@H](O)[C@@H]3O)ccc2F)CC1 | nt | nt | nt | nt | -19 | 2 | 3 | -21
COC(=O)c1ccccc1SCc1csc(C)n1 | -7 | -2 | -4 | i | -15 | 1 | 2 | -11
CCOC(=O)C1=C(C)C(c2ccc(OC)cc2OC)NC(=O)N1 (stereo not given) | 4 | -10 | 0 | i | nt | 3 | 7 | nt
O=C(CSc1ccc(C(F)(F)F)cc1[N+](=O)[O-])Nc1ccc2ccccc2c1 | -2 | 9 | 8 | i | -10 | -1 | 2 | -12
O=C(Nc1sc2c(c1C(=O)O)CCCCC2)c1ccco1 | -5 | 29 | 16 | i | -8 | 5 | 5 | -105
COc1cc(/C=N/NC(N)=S)ccc1OC(=O)c1ccc(C)cc1 | 3 | 1 | 11 | i | nt | 5 | 1 | 8
COc1ccc(CNC(=O)CSc2nnc(C)n2-c2ccc(F)cc2)cc1 | 0 | 0 | -1 | nt | nt | 0 | 0 | -5
c1ccc(CSc2nnc(NC3CCCCC3)s2)cc1 | nt | nt | nt | nt | -26 | 3 | 4 | -41
Oc1ccc(/C=N/N2CCN(C3c4ccccc4-c4ccccc43)CC2)cc1O | 4 | 52 | 6 | i | -24 | -18 | -16 | -8
CCOC(=O)C1=CN(Cc2cccc(F)c2)S(=O)(=O)NC1c1ccccc1 (stereo not given) | nt | nt | nt | nt | -13 | 2 | -2 | -10
